Screens from PubChem BioAssay.
JMJD2A Tudor = inhibitors of human JMJD2A Tudor domain | O75164 | AlphaScreen JMJD2A-Tudor / H3K4me3 peptide binding | Potency, µM (doses to about 114 µM), for inactives: at the highest dose activity change, negative = inhibition, most hits filed as inhibitors | 390,000 compounds, 4.4% hits; note: % is set by controls: 0 for no effect and ±100 for the full control effect; nearly all actives have a fitted effect of over 50% in size
BLM inh = inhibitors of human Bloom syndrome helicase BLM | P54132 | recombinant BLM DNA unwinding, fluorescence dequenching | Potency, µM (highest dose often 56.1 µM), for inactives: at the top dose activity change, negative = inhibition, hits mostly inhibitors | 350,000 compounds, 0.2% hits;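 note: plate controls were vehicle for no effect and no enzyme for full effect; nearly all actives have a fitted effect of over 35% in size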
Pol eta inh = inhibitors of human DNA polymerase eta; Q9Y253; recombinant Pol eta, fluorescent DNA replication assay; Potency, µM (doses to about 114 µM), inactives show at the top dose activity change, negative = inhibition, actives largely listed as inhibitors; 390,000 compounds, 1.2% hits; AID 588591; note: % is set by controls: 0 for no effect and ±100 for the full control effect
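Pol eta at 10 nM preincubated with compounds 15 min at room temperature; reaction started with fluorescent substrate (50 nM final) and read kinetically at 0 and 10 min.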
Pol beta inh = inhibitors of human DNA polymerase beta. AID 485314. 340,000 compounds, 1.3% hits. Potency, µM (highest dose often 114 µM), for the others: top-dose activity change, negative = inhibition, most hits filed as inhibitors. Pol beta primer extension/strand displacement, fluorescence kinetic. P06746; note: % is set by controls: 0 for no effect and ±100 for the full control effect
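Homogeneous kinetic assay of primer extension and strand displacement by 10 nM Pol beta, preincubated 15 min at room temperature with compound before 50 nM substrate (final) was added. Read at 0 and 10 min; four-parameter Hill fit.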
APE1 inh = blocks human APE1 abasic DNA cleavage; 350,000 compounds, 0.35% hits; AID 2517; Potency, µM (series often up to 65.8 µM), for the others: at the highest dose activity change, negative = inhibition, most hits filed as inhibitors; recombinant APE1, TAMRA/BHQ-2 abasic DNA cleavage fluorescence; P27695;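 note: plate controls were vehicle for no effect and reference inhibitor for full effect; nearly all actives have a fitted effect of over 55% in size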
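Endonuclease cleavage of a quenched abasic-site DNA duplex (50 nM) by APE1 (0.75 nM) was tracked by TAMRA dequenching. Compounds were preincubated with enzyme 15 min at room temperature; data normalized to buffer-only and DMSO wells plus NSC13755 control.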
POLK inh = DNA polymerase kappa (human) inhibition | Q9UBT6 | purified Pol kappa, fluorescent DNA synthesis assay, 10 min | Potency, µM (titrated, usually from 107 µM), without a hit: at the top dose activity, negative = inhibition, most hits filed as inhibitors | 400,000 compounds, 0.53% hits; note: % is set by controls: 0 for no effect and ±100 for the full control effect
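50 nM final substrate added after 15 min RT preincubation of 10 nM Pol kappa with compound; fluorescence read at 0 and 10 min.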
Pol iota inh = DNA polymerase iota (human) inhibition | Potency, µM (series often up to 115 µM), for inactives: top-dose activity, negative = inhibition, usual class: inhibitors | Pol iota fluorescent replication assay, 10 min | 390,000 compounds, 1% hits
Target sequence (Q9UNA4 whole entry, looked up): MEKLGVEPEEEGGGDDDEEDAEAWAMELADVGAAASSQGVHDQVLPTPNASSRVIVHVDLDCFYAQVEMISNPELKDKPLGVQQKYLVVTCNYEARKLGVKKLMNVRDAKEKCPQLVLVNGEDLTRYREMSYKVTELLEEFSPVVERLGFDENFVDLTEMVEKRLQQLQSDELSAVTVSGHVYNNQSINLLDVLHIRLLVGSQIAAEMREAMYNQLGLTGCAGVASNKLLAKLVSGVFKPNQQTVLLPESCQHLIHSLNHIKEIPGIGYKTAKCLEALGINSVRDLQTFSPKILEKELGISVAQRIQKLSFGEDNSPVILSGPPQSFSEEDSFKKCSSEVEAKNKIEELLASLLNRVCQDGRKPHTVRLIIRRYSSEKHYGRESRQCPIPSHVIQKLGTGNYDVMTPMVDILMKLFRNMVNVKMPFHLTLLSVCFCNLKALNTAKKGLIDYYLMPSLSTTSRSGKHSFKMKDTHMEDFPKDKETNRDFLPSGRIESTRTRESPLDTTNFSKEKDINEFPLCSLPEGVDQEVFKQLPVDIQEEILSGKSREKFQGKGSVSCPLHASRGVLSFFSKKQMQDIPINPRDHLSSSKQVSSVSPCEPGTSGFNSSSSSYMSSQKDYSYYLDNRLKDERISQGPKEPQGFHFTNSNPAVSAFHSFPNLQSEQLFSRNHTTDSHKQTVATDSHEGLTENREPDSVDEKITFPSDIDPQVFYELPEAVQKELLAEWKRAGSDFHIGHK
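Fluorescent replication assay read twice, at 0 min and 10 min after adding 50 nM (final) substrate. Enzyme (10 nM) and compounds were first incubated 15 min at room temperature; enzyme-free buffer wells were negative controls.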
G9a inh = blocks human histone lysine methyltransferase G9a. Q96KQ7. G9a H3K9 monomethylation, AlphaScreen, 2 h. Potency, µM (series often up to 102 µM), for inactives: at the top dose activity, negative = inhibition, most hits filed as inhibitors. 350,000 compounds, 8.8% hits. AID 504332; note: % is set by controls: 0 for no effect and ±100 for the full control effect; nearly all actives have a fitted effect of over 75% in size
Target sequence (Q96KQ7 913-1193 limits assumed): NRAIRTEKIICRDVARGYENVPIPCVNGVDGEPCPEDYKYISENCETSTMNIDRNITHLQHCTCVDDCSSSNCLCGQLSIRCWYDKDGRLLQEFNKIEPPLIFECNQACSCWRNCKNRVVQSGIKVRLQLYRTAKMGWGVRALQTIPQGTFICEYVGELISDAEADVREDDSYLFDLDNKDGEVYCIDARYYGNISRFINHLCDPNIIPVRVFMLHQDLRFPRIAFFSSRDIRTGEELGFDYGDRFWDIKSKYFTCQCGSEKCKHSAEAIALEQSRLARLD
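G9a (20 nM) was preincubated 15 min with compound, then reacted 2 h at room temperature with 500 nM biotin-H3K9 peptide and 20 µM SAM. Monomethyl-H3K9 detected by AlphaScreen using anti-H3K9me1 antibody.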
The depositor's hits bear a star; ? = inconclusive; . = not tested or not shown; [ ] = remark or other dose. Calls come from the whole dose curve; as a rule, active = well fitted curve in the direction sought with a large enough effect; inconclusive = small, poorly fitted or top-dose-only effect, or another doubt; inactive = no such curve, though single readings can be large; an effect the other way counts as inactive or inconclusive. Potency is the fitted concentration of half-maximal effect.

canonical_smiles	JMJD2A Tudor	BLM inh	Pol eta inh	Pol beta inh	APE1 inh	POLK inh	Pol iota inh	G9a inh
O=C(CCOc1ccccc1)Nc1ccccc1[N+](=O)[O-]	-27.1%	-7.7%	7.3%	6.7%	-10.0%	-6.6%[60.1 µM]	28.9%	-32.8%
O=C(O)CSc1nnc(-c2cc3ccccc3o2)n1-c1ccccc1	-4.5%	3.6%	-7.9%	-4.4%	9.6%	-6.6%	4.7%	-32.7%[12.7 µM]
COc1cccc(CNC(=O)C2CCCN(c3nc4ccccc4o3)C2)c1 (stereo not given)	-4.5%	1.3%	-7.7%	47.5%	-7.0%	11.1%	?	-31.3%[59 µM]
CC1=C/C(=N\NC(=O)c2ccccc2)CC1	-7.2%	3.8%	-2.1%	-19.7%	5.7%	-9.8%	23.0%	7.5%[59 µM]
O=C(CCc1cccc(Cl)c1)N1CCCC(Nc2ccccc2)C1 (stereo not given)	?	-7.7%	-7.8%	16.2%	6.9%	1.0%	-3.9%	?
O=c1oc2c3c(ccc2c2ccccc12)OCN(Cc1cccc(Cl)c1)C3	-33.3%	20.6%	-15.7%	3.6%	.	14.4%	?	0.891µM*
Cc1nn(C(C)C(=O)O)c2ccccc12 (stereo not given)	-10.1%	1.4%	9.8%	-27.4%	1.6%	-3.6%	-9.9%	-14.9%
Cc1ccccc1-c1noc(-c2ccccc2OCC(=O)Nc2cccc([N+](=O)[O-])c2)n1	?	-5.1%	-6.1%	2.6%	.	7.6%	2.4%	15.8µM*
Fc1cccc(Nc2nc(Cl)nc(Cl)n2)c1	-26.0%	3.4%	-6.0%	-1.5%	1.6%	10.4%	-16.2%	.
C=CCN(C(=O)Nc1ccc2c(c1)nc(C)n2C)c1ccccc1	-16.1%	-0.8%	-10.9%	2.3%	4.0%	10.1%	37.5%	10.6%[12.7 µM]
COc1ccc(-c2nc(SCC(=O)NC3CCCC3)c(-c3ccc(C)cc3)[nH]2)cc1OC	?	-9.5%	-18.9%	8.5%	.	-23.4%	-21.8%	?
Cc1cc(C)c(NC(=O)CN2C(=O)CCn3nc(-c4cccn4C)cc32)c(C)c1	?	-4.1%	-7.3%	16.1%	.	-11.4%[60.1 µM]	1.8%	-28.2%[59 µM]
COCCn1c(=NC(=O)CCS(=O)(=O)c2ccccc2)sc2cc(C)ccc21	-2.1%	-8.7%	-2.2%	2.3%	10.0%	4.9%	30.0%[activator]	10.9%
CCCN(CC#CC(O)(c1ccccc1)c1cccnc1)CCC (stereo not given)	-4.1%	-3.2%	1.5%	-11.1%	6.0%	2.2%	-7.0%	22.4µM*
CC(C)(C)c1ccc(OCC(=O)NC2CCS(=O)(=O)C2)cc1 (stereo not given)	-6.7%	-3.3%	-15.4%	0.1%	-4.8%	-7.2%	20.2%	-4.7%[12.7 µM]
CC(C)C(=O)N1CCN(c2ccccc2NC(=O)COc2ccc(C3CCCCC3)cc2)CC1	-6.2%	-6.6%	-15.3%	-0.5%	-16.1%	-18.6%	5.8%	-6.3%
CCOc1ccc(-n2ccnc2SCC(=O)Nc2ccc3c(c2)OCO3)cc1	?	-5.2%	-8.9%	0.5%	.	-4.6%[60.1 µM]	9.7%	?
CC1CCN(c2cc(N3CCOCC3)c(F)cc2[N+](=O)[O-])CC1	?	-1.3%	-14.4%	-19.3%	-2.5%	-12.7%	13.4%	?
O=C(C1CC(c2ccc(F)cc2)=NO1)N1CCCCC1 (stereo not given)	3.2%	-9.7%	-6.1%	27.0%	-1.4%	-7.9%	?	-6.2%[59 µM]
CSC(=S)N/N=C/c1ccc(N(C)C)cc1	?	-4.1%	-13.5%	59.7%	-1.0%	-6.6%	15.6%	-3.2%
COc1ccc(-c2nn(-c3ccccc3)cc2N)cc1	-25.3%	-6.8%	-22.5%	-5.3%	12.4%	1.1%	68.4%[activator]	-46.0%
Cc1nnc(SCC(=O)N(C(C)C)C(C)C)[nH]c1=O	-13.5%	-13.3%	-2.1%	-22.8%	0.1%	-3.4%	141.3%[activator]	?
CCCc1nc(NCc2ccncc2)c2nnn(Cc3ccccc3F)c2n1	-29.4%	-16.6%	-18.0%	?	-0.8%	-7.1%	?	23.0%[59 µM]
CCOC(=O)c1cnc2c(ccc3ccccc32)c1Nc1ccc(OC)c(OC)c1	?	-8.4%	-15.0%	10.8%	.	-7.7%	12.2%	8.91µM*
O=C(CSc1nccn1Cc1ccc(Cl)cc1)Nc1nc2ccccc2s1	?	-6.8%	-23.0%	?	.	2.7%[60.1 µM]	?	?
CCOc1ccc(OCc2ccc(C(=O)Nc3cccnc3)o2)cc1	-24.6%	-8.4%	2.6%	-2.9%	12.0%	-17.5%	-2.2%	-9.9%[0.0925 µM]
O=C(CNC(=O)CNC(=O)c1ccc(Cl)cc1Cl)NCc1cccc(Cl)c1	0.0%	-0.5%	-1.7%	6.3%	25.4%	-4.1%	45.1%[activator]	-26.2%
Cc1ccc(-n2nc(-c3ccc(OC(F)(F)F)cc3)cc2N)cc1C	?	6.1%	-24.5%	-2.8%	-0.7%	-9.3%	-7.9%[58.9 µM]	.
COC(=O)c1ccc(NC(=O)CSc2nccn2CCc2ccccc2)cc1	-8.4%[11.4 µM]	-0.2%	-18.6%	-18.7%	-3.7%	-3.5%	-9.4%	35.5µM*
Cn1c(SCC(=O)N/N=C/c2ccc([N+](=O)[O-])s2)nnc1-c1ccc(Cl)cc1	-35.7%	-1.2%	-6.5%	7.7%	-4.0%	-6.6%	43.4%[activator]	-4.7%[59 µM]
C/C(=N\OC(=O)c1ccc(Br)cc1)c1ccccn1	-11.0%[57.1 µM]	0.2%	-5.6%	-1.7%	17.7%	-5.2%	5.9%	10µM*
CCn1cc(/C=C(\NC(=O)c2ccc(C)cc2)C(=O)NCCCn2ccnc2)c2ccccc21	?	0.8%	1.1%	11.0%	.	1.3%	4.2%	-32.6%[59 µM]
O=C(c1cccs1)N1CCN(Cc2ccccn2)CC1	?	3.8%	-21.0%	-6.0%	-1.6%	3.9%	125.2%[activator]	3.16µM*
Cn1c(SCCOc2cccc(Cl)c2)nnc1-c1ccncc1	21.9%[11.4 µM]	0.0%	-19.5%	1.4%	2.7%	-5.0%	-12.5%	-6.3%
CC(C)(C)N(Cc1ccccc1)C(=O)c1ccc2c(c1)OCCO2	-10.5%	-4.2%	-5.4%	-0.4%	-6.2%	-10.8%	-11.9%	-3.8%
COc1ccc(-c2cc(=O)c3cc(OCC(=O)OC(C)C)ccc3o2)cc1	8.7%	0.4%	-7.6%	-2.4%	.	-1.1%	-7.0%	6.9%[59 µM]
Cc1c(NC2=C(Cl)C(=O)N(c3ccccc3)C2=O)c(=O)n(-c2ccccc2)n1C	?	1.4%	6.0%	4.8%	-4.4%	0.6%	?	?
O=C(/C=C/c1ccc(Cl)c([N+](=O)[O-])c1)Nc1cccc(NC(=O)c2ccco2)c1	-22.9%	-9.5%	-8.7%	?	0.1%	-12.8%	?	-31.7%[59 µM]
COC(=O)c1cc2ccsc2n1Cc1cc(=O)n2ccccc2n1	-10.5%	2.7%	5.4%	-4.7%	-8.2%	-3.1%	2.3%	-29.9%[59 µM]
CC(=O)/C(=N/Nc1ccc(Br)cc1)N1CCCc2ccccc21	?	-10.1%	-5.4%	24.6%	-3.1%	-7.9%	155.2%[activator]	.
COc1ccc(OC)c(N/C(C)=C/C(=O)c2ccccc2)c1	?	-12.1%	-8.2%	-2.2%	-1.2%	-20.8%	28.7%	?
O=S(=O)(c1ccccc1Cl)N1CCC(O)(c2ccc3c(c2)OCO3)CC1	-29.4%	-2.0%	-13.2%	1.6%	0.5%	-9.9%	13.6%	?
c1ccc(N(c2ccccc2)c2nc(N3CCCC3)nc(-n3ccnc3)n2)cc1	?	-9.0%	-18.9%	-1.5%	1.7%	-6.6%	-5.2%	?
COC(=O)c1ccc(/C=C2\CCn3c2nc2cc(C(=O)O)ccc2c3=O)cc1	?	-4.5%	-3.2%	6.7%	20.7%	-3.4%	?	70.8µM*
Cc1ccc(-c2nn3c(C)nnc3s2)cc1N	-3.8%	-1.4%	-13.5%	1.2%	-2.1%	7.5%	16.2%	-0.4%[59 µM]
CCOc1ccc(CCNC(=O)c2sc3ncccc3c2-n2cccc2)cc1OCC	?	-2.7%	-13.5%	-1.5%	.	-12.4%[60.1 µM]	12.8%	-33.1%[59 µM]
O=C(NCc1nnc(SCC(=O)N2CCCCCC2)o1)c1ccco1	-20.2%	0.4%	-12.3%	2.0%	27.7%	2.9%	-4.7%	-15.9%
COc1cccc(CNC(=O)CCCn2ncn3c(cc4occc43)c2=O)c1OC	-7.0%	-4.3%	-6.9%	-5.1%	.	-26.3%	52.8%[activator]	-44.6%[59 µM]
N#CCCn1cc(/C=N/O)c(-c2ccccc2)n1	0.7%	-2.8%	1.0%	14.0%	-2.7%	-15.3%	-5.4%[58.9 µM]	-27.3%
Cc1cccc(-n2ccnc2SCC(=O)Nc2cc(C(F)(F)F)ccc2Cl)c1	-32.9%	-7.4%	-6.4%	7.8%	.	-5.1%[60.1 µM]	3.4%	14.1µM*

Next section (2 carried over from the part before).
canonical_smiles	JMJD2A Tudor	BLM inh	Pol eta inh	Pol beta inh	APE1 inh	POLK inh	Pol iota inh	G9a inh
N#CCCn1cc(/C=N/O)c(-c2ccccc2)n1	0.7%	-2.8%	1.0%	14.0%	-2.7%	-15.3%	-5.4%[58.9 µM]	-27.3%
Cc1cccc(-n2ccnc2SCC(=O)Nc2cc(C(F)(F)F)ccc2Cl)c1	-32.9%	-7.4%	-6.4%	7.8%	.	-5.1%[60.1 µM]	3.4%	14.1µM*
CCCCOC(=O)CCCc1ccc([N+](=O)[O-])cc1[N+](=O)[O-]	?	-9.6%	?	22.1%	12.2%	-24.4%	21.6%	-50.6%
Cc1ccc(-c2cn(-c3ccccc3F)c(=S)[nH]2)cc1	?	-9.7%	-9.7%	-13.9%	-2.3%	-6.0%	-8.3%	28.2µM*
O=C(O)/C(=C\c1cccc([N+](=O)[O-])c1)c1ccc(S(=O)(=O)N2CCCCC2)s1	-19.1%	-18.8%	?	25.1µM*	1.2%	-34.5%	?	?
Oc1c(Cl)cccc1C=Nc1cc(C(F)(F)F)ccc1N1CCCC1	?	-6.5%	-14.3%	25.0%	-3.7%	-4.0%	-4.2%	?
CSc1cccc(NC(=S)NCCCN2CCN(c3ccc(F)cc3)CC2)c1	-12.3%	-6.7%	-18.4%	?	-5.1%	-4.2%	70.6%[activator]	50.1µM*

Individual results from the list:
Oc1c(Cl)cccc1C=Nc1cc(C(F)(F)F)ccc1N1CCCC1 @ Pol eta inh: -14.3%
CSc1cccc(NC(=S)NCCCN2CCN(c3ccc(F)cc3)CC2)c1 @ BLM inh: -6.7%

Some of the compounds tested, so the mix of outcomes need not match the whole.
